Source: PubChem
Env fusion inh: inhibitors of HIV Env-mediated cell fusion. HeLa-JRFL Env/CEM21 cell fusion, luciferase. inhibition, % at 12.3 µM. 1.1% of 360,000 active;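 active = mean replicate inhibition score of at least 50 and every replicate individually at or above 50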;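 note: 0% = plate neutral controls and 100% = maraviroc near 300 nM; one replicate is shown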
Yeast UUG start: yeast start codon fidelity modulation; S. cerevisiae UUG-firefly luciferase reporter, luminescence/redox ratio; AID 602363; activity score, % at 18.7 µM; 0.13% of 350,000 active;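 active = replicate mean at a twofold rise or more, about +100% in these data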;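 note: firefly luciferase made from a UUG start codon reports start codon fidelity; reporter light over untreated wells divided by growth signal over untreated wells; some hits fall short of that in this replicate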
* hit, by the source's call; [ ] = remark or other dose.

SMILES | Env fusion inh | Yeast UUG start
C[C@@H]1CN([C@@H](C)CO)C(=O)Cc2cc(NC(=O)Cc3ccccc3)ccc2O[C@@H]1CN(C)CC1CCCCC1 | -71[16.7 µM] | 11
CCC(=O)N[C@H]1CC[C@H](CC(=O)NCc2cc(F)cc(F)c2)O[C@H]1CO | 3[16.7 µM] | -8
CC(C)CC#Cc1cnc2c(c1)C(=O)N([C@@H](C)CO)C[C@@H](C)[C@@H](CN(C)Cc1ccc(F)cc1)O2 | 28[16.7 µM] | 4
Cc1noc(C)c1S(=O)(=O)N(C)C[C@@H]1Oc2ccc(NS(=O)(=O)c3ccccc3)cc2CC(=O)N([C@H](C)CO)C[C@H]1C | -14[16.7 µM] | -6
COc1ccc(NC(=O)N[C@H]2C=C[C@@H](CC(=O)NCc3ccccn3)O[C@@H]2CO)cc1 | 8[16.7 µM] | -16
Cc1ccc(S(=O)(=O)Nc2ccc3c(c2)C(=O)N([C@@H](C)CO)C[C@@H](C)[C@@H](CN(C)Cc2ccc4c(c2)OCO4)OCCCC[C@@H](C)O3)cc1 | -18[16.7 µM] | 31
C[C@H]1CN([C@@H](C)CO)S(=O)(=O)c2ccc(C3=CCCCC3)cc2O[C@@H]1CN(C)C(=O)c1ccc(F)cc1 | -29[16.7 µM] | 2
COc1ccccc1CNC(=O)C[C@@H]1C=C[C@@H](NC(C)=O)[C@H](CO)O1 | -9[16.7 µM] | -11
C[C@@H]1CN([C@H](C)CO)C(=O)c2cc(NC(=O)C3CCCCC3)ccc2O[C@@H]1CN(C)CC1CCCCC1 | 22[16.7 µM] | 5
CN(C)C(=O)c1ccc(-c2ccc([C@@H]3[C@@H](CO)N(C(=O)C4CC4)[C@H]3C#N)cc2)cc1 | 1[16.7 µM] | -13
C[C@@H]1CN([C@@H](C)CO)C(=O)c2cc(C#Cc3ccccc3)cnc2O[C@H]1CN(C)Cc1ccccn1 | 18[16.7 µM] | -4
Cc1ccc(S(=O)(=O)N(C)C[C@H]2OCCCC[C@H](C)Oc3ccc(NS(C)(=O)=O)cc3C(=O)N([C@H](C)CO)C[C@H]2C)cc1 | 5[16.7 µM] | 9
Cc1ccc(S(=O)(=O)Nc2cccc3c2O[C@@H](CN(C)Cc2ccc(C(=O)O)cc2)[C@H](C)CN([C@H](C)CO)C3=O)cc1 | -5[16.7 µM] | 7
C[C@H]1CN([C@@H](C)CO)C(=O)c2cc(-c3ccc(F)cc3)cnc2O[C@H]1CN(C)Cc1cccnc1 | 4[16.7 µM] | -7
CNC[C@H]1Oc2ccc(NS(=O)(=O)c3c(C)noc3C)cc2C(=O)N([C@@H](C)CO)C[C@@H]1C | -3[16.7 µM] | -8
CC(C)CC#Cc1ccc2c(c1)O[C@H](CN(C)C(=O)c1ccncc1)[C@@H](C)CN([C@@H](C)CO)S2(=O)=O | -3[16.7 µM] | -10
COc1ccccc1S(=O)(=O)N[C@H]1CC[C@H](CC(=O)N2CCN(C)CC2)O[C@H]1CO | 62*[16.7 µM] | -19
C[C@H]1CN([C@@H](C)CO)C(=O)CCCn2nncc2CO[C@H]1CN(C)Cc1cccc(O)c1 | 2[16.7 µM] | -7
C[C@@H]1CN([C@H](C)CO)C(=O)c2cc(NS(=O)(=O)c3cccs3)ccc2O[C@@H](C)CCCCO[C@@H]1CN(C)C(=O)C1CCCCC1 | 5[16.7 µM] | 13
C[C@@H]1CCCCO[C@H](CN(C)Cc2ccc3c(c2)OCO3)[C@H](C)CN([C@@H](C)CO)C(=O)c2cc(NC(=O)CCC(F)(F)F)ccc2O1 | -20[16.7 µM] | 8
CC(=O)N(C)C[C@@H]1Oc2ncc(-c3ccc(C#N)cc3)cc2C(=O)N([C@H](C)CO)C[C@@H]1C | 16[16.7 µM] | -3
COCC(=O)Nc1ccc2c(c1)OC[C@@H](C)NC[C@@H](C)[C@H](OC)CN(C)C2=O | -11[16.7 µM] | -2
CCC(=O)N(C)C[C@@H]1Oc2cc(-c3ccccc3)ccc2S(=O)(=O)N([C@@H](C)CO)C[C@H]1C | -4[16.7 µM] | 23
Cc1noc(C)c1NC(=O)NCC[C@@H]1CC[C@H](NC(=O)c2ccccc2)[C@@H](CO)O1 | 6[16.7 µM] | 4
Cc1noc(C)c1S(=O)(=O)Nc1ccc2c(c1)C(=O)N([C@@H](C)CO)C[C@H](C)[C@@H](CN(C)S(=O)(=O)c1cn(C)cn1)O2 | 7[16.7 µM] | 1

Compound profiles, from the list above:
Results for C[C@@H]1CCCCO[C@H](CN(C)Cc2ccc3c(c2)OCO3)[C@H](C)CN([C@@H](C)CO)C(=O)c2cc(NC(=O)CCC(F)(F)F)ccc2O1 : Env fusion inh = -20[16.7 µM]; Yeast UUG start = 8
Results for CNC[C@H]1Oc2ccc(NS(=O)(=O)c3c(C)noc3C)cc2C(=O)N([C@@H](C)CO)C[C@@H]1C : Env fusion inh = -3[16.7 µM]; Yeast UUG start = -8
Results for COCC(=O)Nc1ccc2c(c1)OC[C@@H](C)NC[C@@H](C)[C@H](OC)CN(C)C2=O : Env fusion inh = -11[16.7 µM]; Yeast UUG start = -2

(next part)
SMILES | Env fusion inh | Yeast UUG start
C[C@@H](NC(=O)C[C@H]1CC[C@H](NC(=O)Nc2ccc3c(c2)OCO3)[C@@H](CO)O1)c1ccccc1 | 6[16.7 µM] | -10
COCCNC(=O)C[C@@H]1C[C@@H]2c3cc(NC(=O)C4CCC4)ccc3O[C@@H]2[C@H](CO)O1 | -10[16.7 µM] | 0
C[C@@H]1CCCCO[C@@H](CN(C)S(=O)(=O)c2ccc(F)cc2)[C@H](C)CN([C@@H](C)CO)C(=O)c2cc(NC(=O)c3ccccc3)ccc2O1 | -3[16.7 µM] | 12
O=C1O[C@@H](c2ccccc2)[C@@H](c2ccccc2)N2[C@@H](c3ccccc3OCCO)[C@]3(C(=O)Nc4ccccc43)[C@@H](C(=O)N3CCN(c4ncccn4)CC3)[C@H]12 | -48[16.7 µM] | 13
O=C(Nc1ccc2c(c1)[C@H]1C[C@H](CC(=O)N3CCc4ccccc4C3)O[C@H](CO)[C@H]1O2)C1CCC1 | -6[16.7 µM] | 5
C[C@@H]1CN([C@H](C)CO)S(=O)(=O)c2ccc(-c3cccc(F)c3)cc2O[C@H]1CN(C)C(=O)Nc1cc(F)ccc1F | 2[16.7 µM] | 9
COc1cccc(S(=O)(=O)N[C@@H]2CC[C@H](CC(=O)NC3CCC3)O[C@H]2CO)c1 | -9[16.7 µM] | -9
COc1ccc(CN(C)C[C@H]2OCCCC[C@H](C)Oc3ccc(NS(=O)(=O)c4ccc(F)cc4)cc3C(=O)N([C@@H](C)CO)C[C@H]2C)cc1 | -11[16.7 µM] | 0
COc1ccc(S(=O)(=O)Nc2ccc3c(c2)CC(=O)N([C@H](C)CO)C[C@@H](C)[C@@H](CN(C)CC2CCCCC2)O3)cc1 | 5[16.7 µM] | 1
CCNC(=O)C[C@@H]1CC[C@@H]2[C@H](COc3ccc(NC(=O)c4ccc(F)cc4)cc3C(=O)N2C)O1 | 4[16.7 µM] | 0
COc1ccc(NC(=O)N(C)C[C@H]2Oc3ccc(NC(=O)Nc4ccc(F)cc4)cc3C(=O)N([C@H](C)CO)C[C@@H]2C)cc1 | 6[16.7 µM] | 3
C[C@H]1CN([C@@H](C)CO)C(=O)Cc2cc(NC(=O)Cc3cn(C)c4ccccc34)ccc2O[C@@H]1CN(C)Cc1ccc(C(=O)Nc2ccccc2N)cc1 | -33[16.7 µM] | 9
Cc1noc(C)c1S(=O)(=O)N(C)C[C@H]1OCCCC[C@@H](C)Oc2ccc(NC(=O)c3ccccc3)cc2C(=O)N([C@@H](C)CO)C[C@H]1C | -44[16.7 µM] | 1
COCC(=O)N[C@H]1CC[C@@H](CC(=O)NCc2ccc(Cl)cc2)O[C@H]1CO | 1[16.7 µM] | -6
CC(C)C#Cc1cnc2c(c1)C(=O)N([C@@H](C)CO)C[C@@H](C)[C@H](CN(C)C(=O)c1ccccc1F)O2 | -14[16.7 µM] | 13
C[C@H]1CN([C@@H](C)CO)C(=O)c2cc(NS(=O)(=O)c3ccccc3)ccc2O[C@H]1CN(C)CC1CCCCC1 | 6[16.7 µM] | -5
O=C(Cc1ccncc1)NCC[C@@H]1CC[C@@H](NC(=O)Nc2ccc(Cl)cc2)[C@@H](CO)O1 | 0[16.7 µM] | 0
COc1ccc(NC(=O)Nc2cccc3c2O[C@H](CN(C)S(=O)(=O)c2ccc(Cl)cc2)[C@@H](C)CN([C@@H](C)CO)C3=O)cc1 | -3[16.7 µM] | -4
C[C@H](CO)N1C[C@H](C)[C@@H](CN(C)C(=O)C2CC2)Oc2cc(C3=CCCCC3)ccc2S1(=O)=O | -25[16.7 µM] | 4
O=C(N[C@@H]1C=C[C@@H](CC(=O)N2CCOCC2)O[C@@H]1CO)c1ccc2c(c1)OCO2 | -3[16.7 µM] | -11
C[C@@H]1CN([C@H](C)CO)C(=O)Cc2cc(NC(=O)CCN3CCOCC3)ccc2O[C@@H]1CN(C)C(=O)Nc1ccc(F)cc1 | 8[16.7 µM] | -22
COC(=O)C[C@@H]1CC[C@H]2[C@H](COc3ccc(NC(=O)NCc4ccccc4)cc3C(=O)N2C)O1 | 4[16.7 µM] | 8
COCCOC(=O)N1C(=O)[C@@]2(c3ccccc31)[C@H](c1ccc(OCCO)cc1)N1[C@H](c3ccccc3)[C@H](c3ccccc3)OC(=O)[C@H]1[C@@H]2C(=O)N1CCN(c2ncccn2)CC1 | -211[16.7 µM] | -10
C[C@H](CO)N1C[C@H](C)[C@H](CN(C)C(=O)Nc2cccc3ccccc23)Oc2ncc(/C=C/c3ccccc3)cc2C1=O | -6[16.7 µM] | 15
C[C@@H]1CN([C@@H](C)CO)C(=O)c2cc(NS(=O)(=O)c3ccc(F)cc3)ccc2O[C@@H](C)CCCCO[C@H]1CN(C)C(=O)CCC(F)(F)F | -109[16.7 µM] | 4

Grouped by structure, those above containing a CF3 group.
SMILES | Env fusion inh | Yeast UUG start
C[C@@H]1CCCCO[C@H](CN(C)Cc2ccc3c(c2)OCO3)[C@H](C)CN([C@@H](C)CO)C(=O)c2cc(NC(=O)CCC(F)(F)F)ccc2O1 | -20[16.7 µM] | 8
C[C@@H]1CN([C@@H](C)CO)C(=O)c2cc(NS(=O)(=O)c3ccc(F)cc3)ccc2O[C@@H](C)CCCCO[C@H]1CN(C)C(=O)CCC(F)(F)F | -109[16.7 µM] | 4

New compounds follow
SMILES | Env fusion inh | Yeast UUG start
C[C@@H]1CN([C@@H](C)CO)C(=O)Cc2cc(NC(=O)Nc3ccccc3)ccc2O[C@H]1CN(C)S(=O)(=O)c1ccc(F)cc1 | 11[16.7 µM] | 1
Cc1noc(C)c1S(=O)(=O)Nc1ccc2c(c1)C(=O)N([C@@H](C)CO)C[C@H](C)[C@@H](CN(C)C)OCCCC[C@H](C)O2 | -8[16.7 µM] | 4
COc1ccc(S(=O)(=O)Nc2ccc3c(c2)C(=O)N([C@H](C)CO)C[C@H](C)[C@@H](CN(C)C(=O)Nc2cccc4ccccc24)OCCCC[C@@H](C)O3)cc1 | 1[16.7 µM] | 0
CC(C)CC#Cc1ccc2c(c1)O[C@@H](CN(C)C(=O)C1CCC1)[C@@H](C)CN([C@H](C)CO)S2(=O)=O | 18[16.7 µM] | 48
COc1ccc(S(=O)(=O)Nc2ccc3c(c2)C(=O)N(C)C[C@H](OC)[C@H](C)CN[C@H](C)CO3)cc1 | 3[16.7 µM] | -1
C[C@@H]1CCCCO[C@H](CN(C)C(=O)CCC(F)(F)F)[C@H](C)CN([C@@H](C)CO)C(=O)c2cc(NC(=O)CCCN(C)C)ccc2O1 | 3[16.7 µM] | 18
Cc1noc(C)c1S(=O)(=O)Nc1ccc2c(c1)C(=O)N([C@@H](C)CO)C[C@H](C)[C@@H](CN(C)C(=O)Nc1ccc(F)cc1)OCCCC[C@@H](C)O2 | -35[16.7 µM] | 2
O=C(C[C@H]1C[C@H]2c3cc(NC(=O)Cc4ccncc4)ccc3O[C@H]2[C@H](CO)O1)NCc1ccccc1 | -2[16.7 µM] | -23
CO[C@H]1CN(C)C(=O)c2cc(NC(=O)C3CCCC3)ccc2OC[C@@H](C)N(C(=O)CC2CC2)C[C@H]1C | -5[16.7 µM] | 4
C/C=C/c1ccc2c(c1)O[C@@H](CN(C)Cc1ccc(C(=O)O)cc1)[C@@H](C)CN([C@H](C)CO)S2(=O)=O | 2[16.7 µM] | 10
C[C@@H]1CN([C@@H](C)CO)C(=O)CCCn2cc(nn2)CO[C@@H]1CN(C)C(=O)Nc1ccc(N2CCCCC2)cc1 | 8[16.7 µM] | 2
Cc1ccc(S(=O)(=O)N(C)C[C@H]2Oc3ccc(NC(=O)Cc4cn(C)c5ccccc45)cc3CC(=O)N([C@H](C)CO)C[C@@H]2C)cc1 | 10[16.7 µM] | -15
Cc1noc(C)c1NC(=O)N(C)C[C@H]1OCCCC[C@H](C)Oc2ccc(NC(=O)CCC(F)(F)F)cc2C(=O)N([C@@H](C)CO)C[C@H]1C | 2[16.7 µM] | -5
CCCC#Cc1ccc2c(c1)O[C@H](CN(C)Cc1cncnc1)[C@H](C)CN([C@H](C)CO)S2(=O)=O | 0[16.7 µM] | -10
CC(C)C#Cc1ccc2c(c1)O[C@@H](CN(C)Cc1ccccn1)[C@@H](C)CN([C@@H](C)CO)S2(=O)=O | -3[16.7 µM] | -9
COc1ccc(C#Cc2cnc3c(c2)C(=O)N([C@H](C)CO)C[C@H](C)[C@H](CN(C)C(=O)Nc2ccc(F)cc2)O3)cc1OC | 19[16.7 µM] | 2
C/C=C/c1ccc2c(c1)O[C@H](CN(C)C)[C@H](C)CN([C@H](C)CO)S2(=O)=O | 1[16.7 µM] | -7

The list is partial. The share of hits here may be higher or lower than overall.
